High-throughput results as filed in PubChem BioAssay.
VDR inhibitor: inhibitors of human vitamin D receptor; P11473; VDR-SRC2-3 peptide fluorescence polarization, 2 h; Potency, µM, for inactives: max response, negative = inhibition, usual class: inhibitors; actives 0.93% (n = 400,000); AID 504847; active = well fitted inhibition curve with a large enough effect; inconclusive = small, poorly fitted or top-dose-only effect, or another doubt; inactive = no such curve, though single readings can be large or run the other way; note: series mostly up to about 120 µM
Target sequence (P11473 whole entry, looked up): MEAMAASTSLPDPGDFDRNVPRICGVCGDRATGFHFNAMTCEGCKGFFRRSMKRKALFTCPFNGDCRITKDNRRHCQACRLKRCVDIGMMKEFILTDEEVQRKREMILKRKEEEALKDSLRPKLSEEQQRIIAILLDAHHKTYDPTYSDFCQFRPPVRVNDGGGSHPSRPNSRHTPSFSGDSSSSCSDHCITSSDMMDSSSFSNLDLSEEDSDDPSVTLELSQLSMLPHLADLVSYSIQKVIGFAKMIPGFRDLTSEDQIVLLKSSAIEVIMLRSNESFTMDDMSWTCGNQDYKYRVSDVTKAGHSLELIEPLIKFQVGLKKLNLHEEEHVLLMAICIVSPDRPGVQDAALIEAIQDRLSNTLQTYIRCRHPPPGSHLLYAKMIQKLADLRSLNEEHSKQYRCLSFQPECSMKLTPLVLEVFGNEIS
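VDR–SRC2-3 interaction, FP format. Cmpds 23 nl via pintool, brief spin, 2 h ambient incubation.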
* marks the source's active call; other numbers are inactive results; ? = inconclusive; & = joins results of further samples; [ ] = remark or other dose. % is set by controls: 0 for no effect and ±100 for the full control effect; potency is the fitted concentration of half-maximal effect. A portion of the library (hit frequency here may not be typical).

SMILES	VDR inhibitor
CC1=CCC2C(=O)N(c3cccc(C(=O)N(C)C4CCCCC4)c3)C(=O)C2C1 (stereo not given)	-3.1%
Cc1ccc(C)c(N2CCN(C(=O)c3ccc4c(Cl)c5c(nc4c3)CCCC5)CC2)c1	-9.9%
Cc1cc(C)nc(SC2CC(=O)N(c3ccc(Br)cc3)C2=O)n1 (stereo not given)	-2.0%
Cn1c(=O)c(-c2ccc(F)cc2)nc2cncnc21	0.2%
Cc1ccc(/C=C2\SC(=S)N(CCC(=O)NNC(=O)c3ccc(O)cc3)C2=O)cc1	1.6%
COc1cc(OC)c(OC)cc1/C=C/c1nc2cc3ccccc3cc2c(=O)n1-c1ccc(F)c(Cl)c1	8.4%
CC(=O)Nc1ccc(NC(=O)C(C)OC(=O)C2CCCC2)cc1 (stereo not given)	7.8%
Cc1cccc(C2c3[nH]c4ccccc4c3CCN2Cc2ccc(C)s2)n1 (stereo not given)	-9.8%
CCN(CC(=O)Nc1cccc(OC)c1)C(=O)c1ccncc1	7.9%
Cc1ccccc1-n1c(SCC(=O)c2c(N)n(C)c(=O)n(C)c2=O)nc2sc3c(c2c1=O)CCCC3	3.5%
CN(CC(=O)Nc1sc2c(c1C#N)CCCCC2)Cc1nc2ccccc2c(=O)[nH]1	-2.2%
Cc1ccc(OCC(=O)N2CCN(C(=O)Cc3ccccc3)CC2)cc1	3.5%
Cc1cccc(OCCc2c(C)[nH]c(=S)[nH]c2=O)c1	7.5%
Cc1ncc(C[n+]2csc(CCOC(=O)CC3C4CC5CC(C4)CC3C5)c2C)c(N)n1 (stereo not given)	-13.1%
CC1CCN(S(=O)(=O)c2ccc(S(=O)(=O)NCc3cccnc3)cc2)CC1	-2.6%
CCN(CC)CCN(C(=O)c1ccc(C(C)=O)cc1)c1nc2ccc(Cl)cc2s1	1.1%
Cc1ccc2c(c1)N(CC(=O)Nc1ncccc1C)C(=O)C(C(C)C)O2 (stereo not given)	-8.7%
COc1ccc(-c2cc(C(=O)NCc3ccco3)c3ccccc3n2)cc1	-8.0%
Cc1cc(C)nc(NS(=O)(=O)c2ccc(NS(=O)(=O)c3ccc(C#N)cc3)cc2)n1	-16.7%
N#Cc1c(-c2ccccc2)nc(SCc2cccc(C(F)(F)F)c2)[nH]c1=O	79.4µM*
O=C(COC(=O)COc1ccc(Cl)cc1Br)NCCC1=CCCCC1	19.5%
COc1c(Cl)ccc(Cl)c1C(=O)OCC(=O)O	-2.2%
CCCCC(CC)C(=O)NCc1ccccc1OC (stereo not given)	2.9%
COc1ccccc1NC(=O)c1ccc(NC(=O)C2COc3ccccc3O2)cc1 (stereo not given)	35.0%[activator]
CSc1nc2ccc(NC(=O)CSc3nnc(N)s3)cc2s1	-8.7%
COc1ccc(S(=O)(=O)Nc2cc(C)on2)cc1	-0.6%
COP(=O)(OC)c1nc(-c2cccc3ccccc23)oc1NCc1ccccc1	-12.4%
CCCc1cc(=O)[nH]c(SCC(=O)Nc2nc(-c3ccccc3)cs2)n1	19.8%
CN(Cc1ccccc1Cl)C(=O)C1CCC(=O)N(CCc2cccc(F)c2)C1 (stereo not given)	-14.4%
COc1cccc(C(=O)OCC(=O)NC(C)CCc2ccccc2)c1O (stereo not given)	-22.6%
O=C(CCn1c(=O)sc2ccccc21)NCc1ccc2c(c1)OCO2	2.8%
O=C1NC(=O)c2cc(Nc3ccc(F)cc3)c(Nc3ccc(F)cc3)cc21	8.3%&3.7%
CC(=O)N1N=C(C)CC1c1ccc(O)cc1 (stereo not given)	-18.5%
O=C(NNC(=S)Nc1ccccc1)c1cc(Br)ccc1Cl	-5.6%
CCOc1ccccc1C(=O)Nc1ccccc1-c1ccccc1	-2.8%
CN1CCN(Cc2cn(C)nc2-c2ccccc2F)CC1c1ccccc1 (stereo not given)	13.8%
O=C1N=C(N2CCOCC2)SC1=C1CCCCC1	-7.9%
COc1cc(/C=N/NC(N)=O)cc(Br)c1OCc1ccccc1C	4.8%
Cc1ccc(C2(C)NC(=O)N(Cc3c(C)noc3C)C2=O)cc1 (stereo not given)	-4.7%
CC(C)(C(N)=O)c1ccccc1	-2.0%
COc1ccccc1C(=O)N/C(=C\c1cn(C)c2ccccc12)C(=O)N1CCOCC1	-11.4%
O=C(/C=C/c1ccc([N+](=O)[O-])s1)N1CCCC1	-15.6%
Cc1c(NC(=O)Nc2ccccc2[N+](=O)[O-])c(=O)n(-c2ccccc2)n1C	12.6%
COc1ccc(CNc2ncncc2-c2ccoc2)c(OC)c1	50.1µM*
CCOC(=O)c1[nH]c(C)c(C(=O)NCCCOC(C)C)c1C	-11.8%
O=C(c1noc2c1CCc1ccccc1-2)N1CCCc2ccccc21	1.2%
Cc1cccc(COCC(CC(C)C)N2CCN(C(=O)c3ccc(C(C)(C)C)cc3)CCC2=O)c1 (stereo not given)	?
CCSc1ccccc1C(=O)n1nnc2ccccc21	50.1µM*
Cc1cc(COc2ccccc2OCc2cc(C)no2)on1	-2.8%
COc1cc(C=O)ccc1OCc1cn(CC(=O)c2ccc(O)cc2)nn1	-9.6%

Reprinted at random: 5 entries already listed.
SMILES	VDR inhibitor
O=C(c1noc2c1CCc1ccccc1-2)N1CCCc2ccccc21	1.2%
COc1cc(C=O)ccc1OCc1cn(CC(=O)c2ccc(O)cc2)nn1	-9.6%
O=C(/C=C/c1ccc([N+](=O)[O-])s1)N1CCCC1	-15.6%
COc1ccc(CNc2ncncc2-c2ccoc2)c(OC)c1	50.1µM*
COc1ccccc1C(=O)N/C(=C\c1cn(C)c2ccccc12)C(=O)N1CCOCC1	-11.4%

(cont.)
SMILES	VDR inhibitor
CCOc1ccc2nc(N3CCCC(C(=O)NCCc4ccc(OC)cc4OC)C3)sc2c1 (stereo not given)	5.2%
CCOC(=O)N1CCN(c2ccc(C(=O)c3ccccc3)cc2F)CC1	3.6%
COC(=O)CCC(C)N1CCC(Oc2ccc(C(=O)NCc3ccccn3)cc2)CC1 (stereo not given)	-2.6%
COC(=O)N1N=C(c2ccc(Br)cc2)CC1(O)C(F)(F)F (stereo not given)	-15.3%
COc1cccc(/C(O)=C2/C(=O)C(=O)N(Cc3cccnc3)C2c2ccco2)c1 (stereo not given)	8.7%
CS(=O)(=O)c1ccc2nc(NC(=O)c3ccccc3Cl)sc2c1	?
O=C(CSc1n[nH]c(=O)n1Cc1ccco1)Nc1ccccc1Cl	-11.4%
CCN(CC)S(=O)(=O)c1ccc(NC(=O)CCN2C(=O)C3CC=CCC3C2=O)cc1 (stereo not given)	9.0%
CCCCOC(=O)/C(=C/C=C/c1ccccc1)NC(=O)c1ccccc1	-18.1%
Cc1cccc(-c2nnc(SCc3cc(=O)[nH]c4ccccc34)n2C)c1	-4.6%
CC1(c2ccccc2)NC(=O)N(CCOc2ccccc2)C1=O (stereo not given)	-0.4%
O=C(N/N=C/c1ccccn1)c1cccnc1	-10.4%
Nc1ccc(C(=O)N/N=C/c2cn(Cc3ccccc3)c3ccccc23)cc1	-3.7%
CCOC(=O)C1=C(C)NC(C)=C(C(=O)OCC)C1c1cccs1	-11.6%
CC1CCc2c(C(=O)Nc3cccc(-c4nn[nH]n4)c3)csc2C1 (stereo not given)	-18.2%
COCc1c(C(=O)N2CCN(c3ncccn3)CC2)oc2ccccc12	-25.2%
Cn1c(=O)c2c(nc(N3CCCCCC3)n2CC(O)COc2ccc(Cl)cc2)n(C)c1=O (stereo not given)	-2.0%
CC(C)(C)c1ccc(C(=O)NNC(=O)Cc2ccccc2)cc1	3.5%
COc1ccc(-c2cc(-c3n[nH]c(=S)n3-c3ccccc3Cl)[nH]n2)cc1	4.7%
O=C(c1ccccc1Br)N1CCCC(c2nc(-c3cccs3)no2)C1 (stereo not given)	-24.2%
Cc1ccc(NC(=O)CSc2nc(N)cc(=O)[nH]2)cc1Cl	-13.3%
COc1ccc(OC)c(NC(=O)N2CCC3(CC2)Oc2ccccc2C(=O)N3Cc2ccccc2F)c1	-15.6%
CCOc1ccccc1NC(=O)COC(=O)COc1c(Cl)cc(Cl)c2ccc(C)nc12	8.1%
CCOC(=O)c1oc2nc(CC(C)C)c3c(c2c1N)CCCC3	-0.9%
Cc1cnn(Cc2cccnc2)c1N	5.2%
CCOc1ccc(Nc2cc(C)c(C#N)c3nc4ccccc4n23)cc1	-12.0%
O=C(NCc1ccc2c(c1)OCO2)c1ccc(CSCc2cccc(Cl)c2)o1	-12.8%
O=C(O)CSCCOc1ccc(OCCSCC(=O)O)cc1	3.0%
CCOc1ccc(CNc2ccc3c(c2)nc(C)n3C)cc1	9.7%
CCSc1nc2ccccc2n1CC(=O)N1CCOCC1	-16.9%
COc1ccc(C(=O)NCc2c(C)nn(Cc3ccccc3)c2C)cc1S(=O)(=O)N1CCOCC1	-1.7%
O=C(CC1SC(N2CCOCC2)=NC1=O)Nc1ccc(F)cc1 (stereo not given)	-3.5%
CN(CC(=O)NC(=O)Nc1ccccc1F)Cc1ccccc1	-5.5%
Cc1ccccc1-c1cc(C(=O)NCC2CC2)nn1CC1CC(c2cccc([N+](=O)[O-])c2)=NO1 (stereo not given)	-18.7%
COCCNC(=O)c1ccc(-c2nc(CN3CCc4ccccc43)c(C)o2)cc1	11.0%
Cc1ccc(SCC(=O)OCC(=O)N(C)C2CCS(=O)(=O)C2)cc1C (stereo not given)	-4.5%
CC(=O)c1ccc(NC(=O)[C@@H]2CCCN2C(=O)OC(C)(C)C)cc1	12.2%
Cc1ccc(S(=O)(=O)N2CCN(c3cnn(C)c(=O)c3Cl)CC2)cc1	-9.8%
N=c1sccn1CC(=O)N1N=C(c2ccc(Cl)cc2)CC1c1ccco1 (stereo not given)	-26.9%
CC(C)c1nn2c(=O)cc(COC(=O)COc3ccccc3F)nc2s1	17.1%
CCc1cccc(C)c1NC(=O)c1cc(S(=O)(=O)N(Cc2ccc(C(=O)OC)cc2)Cc2ccc(OC)c(OC)c2)ccc1F	3.4%
CC(=O)C1(O)CCC2C3CC(C)C4=CC(=O)C=CC4(C)C3(F)C(O)CC21C (stereo not given)	-9.8%
CCOc1ccc2nc(NC(=O)C3=NN(c4ccccc4)C(=O)CC3)sc2c1	-13.1%
Cc1oc(-c2cccc(F)c2)nc1CN1CCCCC1CCn1cccn1 (stereo not given)	2.4%
COc1ccc(N2CC(NC(=O)c3ccc(S(=O)(=O)N4CCCC4)cc3)CC2=O)cc1 (stereo not given)	5.9%
Cc1cc(/C=C\c2nc(O)c([N+](=O)[O-])c(=O)[nH]2)c(C)n1-c1ccccc1	-12.6%
Cc1cc(C)c(S(=O)(=O)NCC(c2ccco2)N2CCOCC2)c(C)c1 (stereo not given)	12.2%
O=C(Cc1nn[nH]n1)Nc1ccc(F)cc1F	39.3%[activator]
CCSC1(SCC)N=C(N)C2(C#N)C(c3ccccc3)NC(C)=C(C)C12C#N (stereo not given)	14.0%
COc1cc(/C=C/C(=O)OCC(=O)N2CC(=O)Nc3ccccc32)ccc1O	-24.4%

Continued; the last 2 above are carried over.
SMILES	VDR inhibitor
CCSC1(SCC)N=C(N)C2(C#N)C(c3ccccc3)NC(C)=C(C)C12C#N (stereo not given)	14.0%
COc1cc(/C=C/C(=O)OCC(=O)N2CC(=O)Nc3ccccc32)ccc1O	-24.4%
N#CCCCS(=O)(=O)c1ccccc1	2.8%
CC(Sc1nnc(CN2CCCC2)n1Cc1ccccc1)C(=O)Nc1ccc(F)cc1Cl (stereo not given)	1.9%
CC(C1CC1)N(Cc1ccccc1)C(=O)NC(=O)c1ccc(F)cc1 (stereo not given)	8.5%
O=c1cc(N2CCOCC2)[nH]c(=O)n1-c1ccc(Br)cc1	-23.1%
COc1cc(C2OCC3C(c4cc(OC)c(OC)c(OC)c4)OCC23)cc(OC)c1OC (stereo not given)	-12.0%
CN1CCN(S(=O)(=O)c2cccc(C#N)c2)C(c2ccccc2)C1 (stereo not given)	-2.5%
O=C1Nc2ccccc2C12Nc1ccccc1-c1nc3ccccc3n12 (stereo not given)	13.4%
CCc1cccc(OCC(=O)Nc2ccc(S(=O)(=O)N3CCCC3)cc2)c1	3.4%
O=C(O)CCC(=O)N1CCC(C(=O)c2cccc(Cl)c2)CC1	-20.9%
NC(=O)c1ccc(NC(=O)COC(=O)CCCN2C(=O)c3cccc4cccc(c34)C2=O)cc1	-6.1%
CC(=O)c1ccc(OCC(O)CN2CCN(CC(O)COc3ccc(C(C)=O)cc3)CC2)cc1 (stereo not given)	-2.3%
O=C(NCN1CCN(c2ccccc2)CC1)c1cnccn1	-4.9%
O=C(Nc1ccccc1)c1ccccc1CC[N+](=O)[O-]	-3.4%
Cc1onc(-c2ccccc2)c1C(=O)Nc1nc2c(s1)C(=O)CC(C)(C)C2	-13.7%
Cc1ccc(S(=O)(=O)c2nc(Nc3ccccc3C#N)sc2Cl)cc1	-0.1%
Cn1c(/C(C#N)=C(\O)c2ccc(S(=O)(=O)N3CCCCC3)cc2)nc2ccccc21	-1.5%
Cc1ccc(NC(=O)C2CCC(CNS(=O)(=O)c3cccs3)CC2)cc1C (stereo not given)	1.5%
Cc1nn(-c2ccccc2)c(Cl)c1C(=O)Nc1ccccc1	10.9%
COc1ccc(CN2C(=O)CCC2(C)C(=O)NC2CCCC2)c(OC)c1 (stereo not given)	-2.8%
CCCn1c(NCCO)nc2ccccc21	5.7%
O=C(Nc1ccccc1Cl)C1C2CCC3C(CCC21)C3(Cl)Cl (stereo not given)	-7.1%
CCOc1cc(N2CCOCC2)c(OCC)cc1NC(=O)COC(=O)COc1cc(C)cc(C)c1	15.8%
Cc1cccc(C(O)C(O)c2cccc(C)n2)n1 (stereo not given)	20.7%
O=C1CC[C@@H](OCc2ccccc2)CCN1CC[C@H](Sc1ccccc1)c1ccccc1	-9.8%
O=c1[nH]c(/C=C/c2cccc(Br)c2)nc2ccccc12	-10.9%
O=C(CCCCn1c(=O)[nH]c2ccccc2c1=O)NCCc1c[nH]c2ccccc12	1.0%
CC(=O)OCc1cc2cccc(C)c2[nH]c1=O	-3.9%

For reference, part of the list above:
SMILES	VDR inhibitor
O=C(Nc1ccccc1Cl)C1C2CCC3C(CCC21)C3(Cl)Cl (stereo not given)	-7.1%
CCOc1cc(N2CCOCC2)c(OCC)cc1NC(=O)COC(=O)COc1cc(C)cc(C)c1	15.8%
